VDR inh: blocks the human vitamin D receptor | VDR-SRC2-3 peptide fluorescence polarization, 2 h | Potency, µM, for the others: max response, negative = inhibition, actives largely listed as inhibitors | actives 0.93% (n = 400,000) | AID 504847; active = well fitted inhibition curve with a large enough effect; inconclusive = small, poorly fitted or top-dose-only effect, or another doubt; inactive = no such curve, though single readings can be large or run the other way; also: series mostly up to about 120 µM
Target sequence (P11473 whole entry, looked up): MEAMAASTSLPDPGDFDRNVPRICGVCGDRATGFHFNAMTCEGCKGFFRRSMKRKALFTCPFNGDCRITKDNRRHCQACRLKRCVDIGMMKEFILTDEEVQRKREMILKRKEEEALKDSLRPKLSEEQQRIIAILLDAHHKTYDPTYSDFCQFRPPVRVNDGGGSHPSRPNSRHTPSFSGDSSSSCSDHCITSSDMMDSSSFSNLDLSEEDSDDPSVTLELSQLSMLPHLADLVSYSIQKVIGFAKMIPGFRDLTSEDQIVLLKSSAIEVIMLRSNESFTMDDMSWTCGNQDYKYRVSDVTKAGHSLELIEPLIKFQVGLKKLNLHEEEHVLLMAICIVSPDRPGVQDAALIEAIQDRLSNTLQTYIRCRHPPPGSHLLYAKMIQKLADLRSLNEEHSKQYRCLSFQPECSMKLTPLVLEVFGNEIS
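Fluorescence polarization assay of small-molecule disruption of VDR binding to coregulator peptide SRC2-3. Compounds and controls pin-transferred, then read after 2 h incubation at ambient room temperature.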
An asterisk follows results filed as active; ? = inconclusive; & = joins results of further samples. % is scaled to controls: 0 for no effect and ±100 for the full control effect; potency is read from the fitted curve at half-maximal effect. A portion of the library; the hit share may differ from the screen's.

SMILES	VDR inh
Cc1nn(Cc2noc(C(=O)NCc3ccc(F)cc3)n2)c(C)c1Br	-14.5%&11.3%
COC(=O)C1CCN(C(=O)COC(=O)C2CCN(S(=O)(=O)c3ccc4c(c3)OCCO4)CC2)CC1	12.1%
COc1ccc(Cc2nnc(N=Nc3c(O)[nH]c4ccc(Br)cc34)[nH]c2=O)cc1	-9.1%
Cc1cc(C)c(NC(=O)Cc2csc(C)n2)c(Cl)c1	-4.7%
Cn1nc(C(=O)NNC(=O)CCOc2ccc(C(C)(C)C)cc2)c2ccccc2c1=O	-0.9%
Cc1ccc(S(=O)(=O)/N=c2\sccn2C)cc1	-3.8%
COc1cccc2sc(=NC(=O)c3ccc(S(=O)(=O)N4CCCCC4)cc3)n(C)c12	21.7%
Cc1ccc(NC(=O)CSc2nccn2Cc2ccccc2)cc1C	8.0%
O=C(CNC(=O)c1ccccc1F)NCCOc1cccc(Cl)c1Cl	14.2%
Cc1ccc(-n2cccc2/C=N/n2cnnc2)cc1Cl	1.5%
Nc1nnc(CCS(=O)(=O)c2ccc(Cl)cc2)s1	13.1%
COc1cc(CN2CCCC(CO)(Cc3ccccc3F)C2)ccc1O (stereo not drawn)	4.9%
COc1ccccc1OCC(=O)Nc1cc(C)ccc1NC(=O)c1ccco1	-8.9%
CCc1cccc2c(C(=O)COC(=O)c3ccc(O)cc3)c[nH]c12	-8.9%
CCc1ccc(C(=O)N/N=C(\C)c2ccncc2)s1	-2.7%
CC(C)Oc1ccc(NC(=O)c2ccncc2)cc1	-4.8%
COC(=O)c1ccc(C(=O)NC2CCCc3c2cnn3-c2ccccc2F)nc1 (stereo not drawn)	-12.8%
Cc1ccc(NC(=O)CC2Sc3ccc(C(F)(F)F)cc3NC2=O)cc1 (stereo not drawn)	18.8%
Cc1ccc(NC(=S)NNC(=O)C2CC2c2ccc(C)cc2)cc1 (stereo not drawn)	8.1%
Cc1nn(-c2ccccc2)c2nc(-c3ccco3)cc(C(=O)O)c12	0.9%
COc1ccc(-c2nc3cnc(N4CCOCC4)nc3n(-c3ccccc3)c2=O)cc1	4.1%
O=C1c2ccccc2C(=O)c2cc(N3CCCCC3)ccc21	1.8%
CCCCNC(=O)c1ccc(NS(=O)(=O)c2ccccc2)cc1	-8.1%
CN(C)c1ccc(-c2nc3ccccc3n2C)cc1	0.1%
COc1ccc(N2CCN(C(=O)c3ccc(C)c(NC(=O)C4=C(C)OCCS4)c3)CC2)cc1	-9.1%
COc1cc2c(cc1OC)CN(C(=S)Nc1ccc(OC(F)F)cc1)CC2	0.4%
Cc1c(NC(=O)COC(=O)COc2ccc(Nc3ccccc3)cc2)c(=O)n(-c2ccccc2)n1C	-12.8%
CCc1ccc(C(=O)c2c(N)c(-c3nc(-c4ccc5c(c4)OCO5)cs3)c3ccccn23)cc1	-6.1%
Fc1ccccc1CN(CCN1CCOCC1)C(=S)Nc1ccccc1Cl	-12.8%
Cc1cccc(NC(=S)N/N=C/c2ccc([N+](=O)[O-])s2)c1	-6.9%
COc1cccc(-c2ncc3ccccc3c2COC(=O)c2ccc(Br)cc2)c1	-19.2%
Cc1cccc(N2CCN(C(=O)C3CCCN(S(=O)(=O)c4ccc(Br)s4)C3)CC2)c1C (stereo not drawn)	-6.0%
COc1ccc(-c2cn(-c3ccc(C)cc3)c(=O)n2CC(=O)Nc2cccc(F)c2)cc1	21.1%
Cc1ccc(S(=O)(=O)N2CCOCC2)cc1NC(=O)CNCC1CCCCC1	-24.2%
COc1ccc(C=NC(CO)C(O)c2ccc([N+](=O)[O-])cc2)cc1 (stereo not drawn)	-4.0%
CC(C)c1ccc(NC(=O)c2ccc(NC(=O)CCS(=O)(=O)c3cccs3)cc2)cc1	-3.9%
Cc1ccc(C2C(C#N)=C(N)Oc3c2oc(CO)cc3=O)o1 (stereo not drawn)	-7.5%
C=CCn1c(N)c(S(=O)(=O)c2cccs2)c2nc3ccccc3nc21	-5.4%
CCc1noc2c1/C(=N\O)CC(c1ccccc1)C2 (stereo not drawn)	3.0%
O=C(NCC(=O)N1CCN(c2ccccc2O)CC1)C1CCCCC1	20.1%
COC(=O)Cn1c(C2CC(=O)N(c3c(C)cccc3C)C2)nc2ccccc21 (stereo not drawn)	12.3%
COc1ccc(S(=O)(=O)N(C)CC(=O)Nc2ccc(C)cc2)cc1OC	-19.9%
Cc1ccc(C(=O)CSc2cc(C)[nH]c(=O)n2)cc1	?
O=C(/C=C/c1ccco1)Nc1ccc(Oc2ccccc2)cc1	-19.2%
O=c1c2c(nc3nc(CCc4ccccc4)[nH]n13)CCC2	11.7%

Filtered by structure: those above containing an aryl thioether with sulfur outside any ring (2)
SMILES	VDR inh
Cc1ccc(NC(=O)CSc2nccn2Cc2ccccc2)cc1C	8.0%
Cc1ccc(C(=O)CSc2cc(C)[nH]c(=O)n2)cc1	?

(listing goes on)
SMILES	VDR inh
COc1cc(OC)c(/C=N/NC(=O)Cn2nc([N+](=O)[O-])cc2C)c(OC)c1	3.2%
COc1ccc(-c2oc3ccccc3c(=O)c2O)cc1OC	5.4%
CCc1c(C#N)c(SCCC(=O)Nc2cccc(OC)c2)nc2c1C(=O)CC(C)(C)C2	12.6%
COc1ccc(-c2sc3ccccc3c2-c2ccc(O)cc2)cc1	-10.2%
c1ccc(CSCc2nc3ccccc3[nH]2)cc1	14.5%
NC(=O)C(=O)NN=C1C2CC3CC(C2)CC1C3	-9.8%
COc1ccccc1CN1CC(C(=O)N(CCO)Cc2cccs2)CCC1=O (stereo not drawn)	4.6%
COc1cccc(-n2nnnc2SCC(=O)NCCc2ccccc2)c1	14.0%
COc1ccc(C(=O)Nc2ccc3nc(SCc4ccc(C)cc4)sc3c2)cc1	12.5%
Cc1ccc(NC(=O)CSc2ccc3nnc(-c4cccnc4)n3n2)cc1	2.4%
CC(C)C[C@H](NC(=O)OC(C)(C)C)C(=O)N1CCC(C(=O)N[C@@H](Cc2c[nH]c3ccccc23)C(=O)O)CC1	-8.2%
Cc1c(C)n(Cc2ccc(Cl)cc2)c2ccc(C(=O)NCCN3CCOCC3)cc12	9.4%
CCCOc1ccc(C2c3c(oc4cc(C)c(C)cc4c3=O)C(=O)N2CCCN(C)C)cc1 (stereo not drawn)	4.6%
CCCCNC(=O)C1CCCN(Cc2nc(-c3ccc(Cl)cc3)oc2C)C1 (stereo not drawn)	-8.1%
Cc1cc(C)cc(C(=O)NCCN2CCOCC2)c1	-5.0%
Cc1ccc(C)c(Cn2c3ccccc3c3cnn(CC(=O)N4CCCCC4)c(=O)c32)c1	19.3%
COc1cc(NC(=O)c2ccccc2-n2cnnn2)cc(OC)c1	2.4%
CCN(CC)/C(N)=N/c1nc(C)cc(C)n1	-9.6%
COc1ccc(CNc2ccccc2SC)cc1OC	1.0%
Cc1cc(=S)c2ccccc2[nH]1	-2.6%
COc1ccc(CCNC(=O)Cn2cnc3c(cnn3C(C)(C)C)c2=O)cc1OC	13.6%
COc1ccc(CNC(=O)[C@H](C)N2C(=O)N3CCc4c([nH]c5ccccc45)[C@@]3(C)C2=O)cc1OC	-0.6%
CSc1nnnn1-c1ccc(C(=O)OCC(=O)N2CCOCC2)cc1	-7.8%
Cc1ccc(-c2nc(S(=O)(=O)c3ccc(C)cc3)c(SCC(=O)NC3CCCCC3)o2)cc1	10.3%
COc1cc([N+](=O)[O-])ccc1NC(=O)Nn1cnnc1	3.8%
Cc1ccccc1NC(=O)COc1ccc(Br)cc1CNCCCO	-6.9%
CCN1CCN(Cc2ccc(NC(=O)c3ccc(C)c(NC(=O)c4nccnc4N)c3)cc2C(F)(F)F)CC1	11.1%
COc1ccc(CCNC(=O)c2cc3c(F)cccc3s2)cc1OC	-15.9%
O=C(NCC1CCCO1)c1ccc(CNS(=O)(=O)c2cccc(Cl)c2)cc1 (stereo not drawn)	-23.0%
Cc1oc(-c2cccc(Cl)c2)nc1CSc1nnc(C)n2c1cc1occc12	0.7%
CCOc1c(OC)cccc1C(=O)NCC1(c2ccccc2)CCCC1	-24.3%
O=C(CN1CCOCC1)N/N=C/c1cc2ccccc2nc1Cl	-0.7%
COC(=O)Cc1nnc(NC(=O)C(C)C)s1	-1.4%
CCC(=O)Nc1cc2c(cc1C(C)=O)OCCO2	5.5%
O=C(c1ccco1)N1CCN=C1SCc1cccnc1	-11.4%
CCOC(=O)c1c(C)[nH]c(C(=O)COC(=O)CNC(=O)c2ccc(Br)cc2)c1C	12.6%
CC(=O)C(Cl)C(=O)Nc1ccccc1 (stereo not drawn)	14.1µM*
O=C(Nc1nc2ccc(Cl)cc2s1)c1ccco1	-0.6%
Fc1ccc2nc(N3CCCC3)sc2c1	-10.1%
COc1cccc(CCNC(=O)CCc2nnc(-c3cc(C)oc3C)o2)c1	11.7%
CC1CN(C=O)CC(C)N1CCN1C(C)CN(C=O)CC1C (stereo not drawn)	-10.3%
C=CCn1c(SCC(=O)Nc2ccc(C(=O)OCC)cc2)nnc1-c1sc(N)nc1C	4.6%
COCc1cc(=O)n2c(-c3ccccc3OC)n[nH]c2n1	18.5%
Cc1ccc(-c2nc(N)n(C(=O)c3cccnc3)n2)cc1	-16.0%
COc1ccc2c(c1)CCc1c(C(=O)Nc3c(C)n(C)n(-c4ccccc4)c3=O)noc1-2	-1.5%
COCCCNC(=O)COc1ccc(Cl)c(C)c1	-5.2%
COc1ccc(NC(=O)C(c2ccccc2)c2ccccc2)c(OC)c1	-14.1%
O=C1C2N=NN(CC(=O)N3N=C(c4cccc5ccccc45)CC3c3ccccc3)C2C(=O)N1c1ccccc1 (stereo not drawn)	1.2%
CNc1cc(CSC)nc(SCc2ccc(Cl)c(Cl)c2)n1	-10.1%
O=C(Nc1ccc(Cl)c(Cl)c1)NC1CCS(=O)(=O)C1 (stereo not drawn)	-6.1%
Cc1cc(=O)oc2c(CN3CCCCC3)c(O)ccc12	-24.9%
Cc1cccc(CN2C(=O)c3ccccc3S(=O)(=O)c3ccc(C(=O)N4CCN(c5cc(C)ccc5C)CC4)cc32)c1	-9.8%
CN(c1ccc(-c2csc(NC(=O)C3CC(=O)N(Cc4ccco4)C3)n2)cc1)S(C)(=O)=O (stereo not drawn)	?
CCN(CC)C(=O)c1sc2c(c1C)c(=O)n(-c1ccc(C)c(C)c1)c(=O)n2Cc1cc(=O)n2c(C)cccc2n1	9.3%
O=C(c1ccccc1NS(=O)(=O)c1ccccc1[N+](=O)[O-])N1CCOCC1	-16.1%
COc1ccc(C(=O)NCCCc2ccccc2)cc1OC	-0.5%
CN(CC(=O)NCCc1ccccc1)S(=O)(=O)c1ccc(Br)s1	-11.2%
O=C(N/N=C1\CCCc2c1[nH]c1ccc(Cl)cc21)c1ccncc1	13.1%
O=C(NCc1cccnc1)Nc1cccc(NC(=O)NCc2cccnc2)c1	-11.4%
O=C(C1CC1)N1N=C(c2ccncc2)CC1(O)C(F)(F)F (stereo not drawn)	-7.9%

The listing continues:
SMILES	VDR inh
CCN(CC)CCSc1nnc2c3cc(F)ccc3n(Cc3ccccc3)c2n1	-26.4%
Cc1cc(NC(=O)CSc2nnc(-c3ccccc3C)n2C)no1	-24.8%
O=c1c2ccccc2nc2n1CCN2Cc1ccc(Cl)cc1	-3.6%
CC(C)Oc1ccc(CNC(=O)C2CCN(Cc3cc4ccccc4n3Cc3ccccc3)CC2)cc1	3.3%
COc1ccc(S(=O)(=O)NC(C)CCc2ccccc2)cc1 (stereo not drawn)	?
Cc1ccccc1/C(N)=N/OC(=O)/C=C/c1ccccc1	-5.7%
CCc1nn(C(C)C(=O)N2CCN(Cc3ccccc3)CC2)c(=O)c2cc3occc3n12 (stereo not drawn)	14.1%
Cc1ccc(S(=O)(=O)N2CCN(CCNC(=O)C(=O)Nc3ccc(F)cc3)CC2)cc1	10.0%
CCOc1ccc2nc(C)cc(C(=O)O)c2c1	-7.2%
Nc1cccc2c1C(=O)N(C(=O)c1cccc(S(=O)(=O)N3CCCCCC3)c1)C2=O	?
Cc1ccc(-n2c(C)cc(/C=C3\NC(=O)NC3=O)c2C)c(C)c1	?
N#Cc1nc(-c2ccccc2F)oc1NCCc1ccccn1	2.8%
Cc1ccc(C)c(S(=O)(=O)N2CCCC2CNC(=O)C(=O)NCC2CCCO2)c1 (stereo not drawn)	12.7%
CC(Oc1ccccc1F)C(=O)NNC(=O)CCS(=O)(=O)c1ccccc1Cl (stereo not drawn)	-7.9%
OCCN(Cc1ccccc1)CC1CCCCC1	-4.2%
CCNc1nc(NCC)nc(-n2nc(C)cc2C)n1	-0.8%
Cc1cccc(C)c1OCC(O)CNC(C)C (stereo not drawn)	15.0%
Nc1nnnn1/N=C/c1ccc(Br)cc1	-12.7%
COc1ccc(Cn2c(C(=O)O)c(CNCCc3ccco3)c3ccc(C)cc32)cc1	7.2%
CCN(C(=O)CSc1nnc(-c2ccccc2Cl)n1C1CCCC1)C1CCS(=O)(=O)C1 (stereo not drawn)	2.1%
CCOC(=O)c1sc2nc3c(cc2c1N)C(=O)CC(C)(C)C3	27.6%
Cc1c(OCC(=O)NCCCN2CCOCC2)ccc2c(-c3ccccc3)cc(=O)oc12	-3.2%
CSc1nc2nc(-c3ccccc3)cc(C(F)(F)F)n2n1	3.7%
